# Bioassay records: PubChem BioAssay, several laboratories
# VCAM-1 down imaging: suppression of endothelial VCAM-1 upregulation – imaging, high-content imaging, pooled HUVEC, TNFa stimulus (AID 456); HUVEC TNFa-induced VCAM-1 surface expression, immunofluorescence imaging; numbers were filed only for top-ranked candidate wells; one-dose inhibition, % at 5 µM; IC50 in µM for titrated hits; 10,000 tested, 0.2% active;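 active means top tenth filtered wells with inhibition above zero that passed visual or statistical confirmation; inactive means the rest, including hits rejected on review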;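 further: 0% = stimulated vehicle wells and 100% = unstimulated cells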
# VCAM-1 inhibition: inhibitors of TNFa-induced VCAM-1 surface display, cell-based, plate reader, pooled HUVEC, TNFa stimulus (AID 454); inhibition, % at 5 µM; 10,000 tested, 0.2% active; HUVEC TNFa-induced VCAM-1 surface immunofluorescence, plate reader; numbers were filed only for top-ranked candidate wells;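 active means compound among top-ranked inhibitors of TNF-induced VCAM-1 adhesion protein staining, with the hit upheld by image or statistical review; inactive means the rest, including hits rejected on review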;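 further: 0% = TNFa with vehicle and 100% = cells without TNFa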
# VCAM-1 augmentation: boosters of cytokine-driven VCAM-1 levels – imaging, high-content imaging, pooled HUVEC, TNFa stimulus (AID 457); Pooled HUVEC, TNFa-induced VCAM-1 immunofluorescence imaging; hits of this screen are not shown here; calls only; 10,000 tested, 0.2% active;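 active means a top-ranked rise in VCAM-1 staining upheld on image or statistical review; inactive means the rest, including candidates rejected on review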;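 further: compounds tested at 5 µM in the well; cells exposed to compound for 24 hours before fixing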
# FPRL1 ligand: human FPRL1 ligand, with FPR counter-screen. P25090. FPRL1-expressing cells, fluorescent ligand binding inhibition, flow cytometry. inhibition, %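 (tested at 6.7 µM)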. 24,000 tested, 0.3% active. AID 441;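 further: 0% = buffer alone and 100% = receptor blocker peptide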
# Target sequence (P25090 whole entry, looked up): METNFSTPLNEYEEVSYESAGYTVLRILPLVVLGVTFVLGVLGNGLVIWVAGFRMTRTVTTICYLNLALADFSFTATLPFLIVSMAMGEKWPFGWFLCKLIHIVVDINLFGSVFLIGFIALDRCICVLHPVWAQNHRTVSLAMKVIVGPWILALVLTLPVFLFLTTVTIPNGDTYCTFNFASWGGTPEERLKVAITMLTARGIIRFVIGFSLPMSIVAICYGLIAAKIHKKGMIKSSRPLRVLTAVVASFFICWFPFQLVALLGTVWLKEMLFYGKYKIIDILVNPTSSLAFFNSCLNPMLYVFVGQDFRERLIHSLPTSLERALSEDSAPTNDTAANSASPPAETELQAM
# FPR ligand: ligands of human FPR, also counter-screen for FPRL1 ligands; 24,000 tested, 0.74% active; P21462; inhibition, %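 (tested at 6.7 µM)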; FPR-expressing cells, fluorescent ligand binding, flow cytometry;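 further: 0% = buffer wells and 100% = receptor blocker peptide wells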
# Target sequence (P21462 whole entry, looked up): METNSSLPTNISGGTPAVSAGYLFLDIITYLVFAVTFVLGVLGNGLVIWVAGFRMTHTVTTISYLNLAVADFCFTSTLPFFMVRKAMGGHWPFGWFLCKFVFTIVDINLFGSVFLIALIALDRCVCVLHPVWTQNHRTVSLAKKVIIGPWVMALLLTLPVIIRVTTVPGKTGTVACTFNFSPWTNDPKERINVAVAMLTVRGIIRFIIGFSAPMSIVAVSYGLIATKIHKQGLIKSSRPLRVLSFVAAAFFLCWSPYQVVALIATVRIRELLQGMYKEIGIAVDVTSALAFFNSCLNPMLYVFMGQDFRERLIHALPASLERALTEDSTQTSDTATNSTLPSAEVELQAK
# The depositor's hits bear a star; i = inactive; ? = inconclusive; · = no result given.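 How the source made its calls, unless noted: active means mean above 30%; inconclusive means self-fluorescent; inactive means the rest.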
SMILES,VCAM-1 down imaging,VCAM-1 inhibition,VCAM-1 augmentation,FPRL1 ligand,FPR ligand
Cc1cccc(NC(=O)CC2NC3CCCCC3NC2=O)c1 (stereo unspecified),i,i,i,2,2
Cc1c(C(=O)NCc2ccc3c(c2)OCO3)oc2ccc(S(=O)(=O)N3CCCCCC3)cc12,·,·,·,-4,0
CCOCCCNC(=O)Cc1c(C(=O)O)[nH]c2ccc(Cl)cc12,·,·,·,4,-8
O=C(Cn1cc2c(n1)CCCC2)Nc1ccccc1Br,·,·,·,-2,-7
Cc1ccc(CS(=O)(=O)CCC(=O)NCCN2CCCC2)cc1,·,·,·,-5,0
COC(=O)c1cc2occc2n1CC(=O)N(C)C1CCCCC1,·,·,·,-1,-3
CCCN(CC1CC1)C(=O)Nc1ccccc1C,i,i,i,6,-4
CCCOC(=O)/C(C(N)=NCc1ccccc1)=C(\O)OCCC,i,i,i,6,-2
CCOC(=O)CC(=O)CSc1nc2c(sc(=S)n2-c2ccccc2)c(=O)[nH]1,·,·,·,-5,5
CCOC(=O)c1cc2ccc(OC)c(OC)c2c(=O)s1,i,i,i,4,4
O=C(COc1ccc(Cl)cc1)NCc1nnc(SCC(=O)c2ccccc2)o1,·,·,·,1,5
O=C(Nc1ccc2c(c1)OCO2)C1CCCN1C(=O)Nc1ccccc1F (stereo unspecified),i,i,i,0,8
CCOc1ccc2nc(NC(=O)CSc3nc4ccccc4c(=O)n3Cc3ccco3)sc2c1,i,i,i,-16,5
CCCCCC(=O)N1CCN(c2ccc(C(C)=O)cc2F)CC1,·,·,·,-2,0
COC(=O)C1(S(=O)(=O)c2cccc3nsnc23)CC1,·,·,·,84*,33*
O=C(NCC1CCCO1)C1CCN(S(=O)(=O)c2cccc3cccnc23)CC1 (stereo unspecified),i,i,i,8,14
O=C(O)c1n[nH]c2ccccc12,·,·,·,12,1
COc1cccc(C2C=C(c3ccc(Br)s3)Nc3ncnn32)c1OC (stereo unspecified),·,·,·,-3,1
O=C(O)CCc1nn2c3ccccc3nc2n(CCN2CCCCC2)c1=O,·,·,·,-2,-3
CSc1cccc(NC(=O)C2CCN(S(=O)(=O)c3ccc(F)cc3)CC2)c1,i,i,i,0,2
CCOC(=O)N1CCN(C(=O)Cn2ccc3ccccc3c2=O)CC1,·,·,·,5,-2
O=C(CCCn1c(=O)c2ccccc2n(Cc2ccccc2)c1=O)NCc1ccco1,·,·,·,1,10
Cn1c(=O)[nH]c(=O)c2c1nc(CN1CCN(c3cccc(Cl)c3)CC1)n2CCc1ccccc1,i,i,i,3,-4
O=c1oc2c3c4c(cc2s1)CCCN4CCC3,i,i,i,?,?
CC(C)(C)Nc1nc(Oc2ccc(=O)n(-c3ccccc3)n2)nc(N2CCOCC2)n1,·,·,·,-2,4

# By substructure: those above containing four or more nitrogen atoms (5)
SMILES,VCAM-1 down imaging,VCAM-1 inhibition,VCAM-1 augmentation,FPRL1 ligand,FPR ligand
CCOc1ccc2nc(NC(=O)CSc3nc4ccccc4c(=O)n3Cc3ccco3)sc2c1,i,i,i,-16,5
COc1cccc(C2C=C(c3ccc(Br)s3)Nc3ncnn32)c1OC (stereo unspecified),·,·,·,-3,1
O=C(O)CCc1nn2c3ccccc3nc2n(CCN2CCCCC2)c1=O,·,·,·,-2,-3
Cn1c(=O)[nH]c(=O)c2c1nc(CN1CCN(c3cccc(Cl)c3)CC1)n2CCc1ccccc1,i,i,i,3,-4
CC(C)(C)Nc1nc(Oc2ccc(=O)n(-c3ccccc3)n2)nc(N2CCOCC2)n1,·,·,·,-2,4

# Next section:
SMILES,VCAM-1 down imaging,VCAM-1 inhibition,VCAM-1 augmentation,FPRL1 ligand,FPR ligand
CCCc1cc(N2CCCC2)n2nc(C)c(-c3ccccc3)c2n1,i,i,i,-2,14
CCN(CC)C(=O)COC(=O)c1ccc(O)cc1,i,i,i,3,-1
CCOC(=O)N1CCN(C(=O)CCN2C(=O)COc3ccccc32)CC1,·,·,·,-5,-4
Cc1oc2cc(O)ccc2c(=O)c1-c1cnn(-c2ccccc2)c1,i,i,i,-1,-4
Cc1ccc2c(c1C)NC(C)CC2C (stereo unspecified),i,i,i,-7,7
CCOc1ccc(NS(=O)(=O)c2ccc3[nH]cc(C(=O)NCCOC)c(=O)c3c2)cc1,·,·,·,17,8
O=C(CSc1nc2[nH]ncc2c(=O)n1-c1ccccc1Br)NCc1ccco1,i,i,i,0,8
COc1ccc(NC(=O)Nc2ccc(N3CCCC3=O)cc2)cc1OC,i,i,i,-1,5
Cc1ccc(-c2nc3cnccn3c2Nc2ccccc2)o1,·,·,·,12,0
O=C(CSc1nc2c(c(=O)n1-c1ccc(Cl)cc1)SCC2)NCC1CCCO1 (stereo unspecified),·,·,·,-10,-6
CCc1ccc(C2N(c3ccc(OC)cc3)C(=O)C3CCCN32)cc1 (stereo unspecified),·,·,·,0,1
COc1ccc(-c2cc(C(=O)N3CCc4ccccc4C3)no2)cc1OC,·,·,·,-4,1
O=C(Cn1cc2c(n1)CCCC2)N1CCCc2ccccc21,·,·,·,2,-4
CCC(C)(C(=O)NC1CCCC1)N(Cc1ccco1)C(=O)c1ccc2c(c1)OCO2 (stereo unspecified),·,·,·,8,-5
CCOc1cccc(C(=O)N2CCCCC2c2cccnc2)c1 (stereo unspecified),i,i,i,-4,-1
COc1cc2c(cc1OC)C(C(=O)NCc1cccnc1)C(c1cccnc1)N(C)C2=O (stereo unspecified),·,·,·,8,-3
CC(C)Cc1cc(C(=O)Nc2sc3c(c2C#N)CCCC3)no1,·,·,·,-8,7
COc1ccc(OC)c(Nc2ncnc3c2cnn3-c2ccccc2)c1,i,i,i,-2,-4
COc1ccc2nc(NC(=O)C3CCCN(S(=O)(=O)c4c(C)noc4C)C3)sc2c1 (stereo unspecified),·,·,·,-1,4
CCN(CCNC(=O)CN1CCN(Cc2ccc(Cl)cc2)C1=O)c1ccccc1,·,·,·,20,22
Nc1nc(Cl)nc2c1ncn2[C@@H]1O[C@H](CO)[C@@H](O)[C@H]1O,i,i,i,-3,2
Cc1cc(Nc2ccc(F)c(Cl)c2)n2ncnc2n1,·,·,·,0,-3
COc1ccc(CCNC(=O)CC2Nc3ccccc3NC2=O)cc1OC (stereo unspecified),·,·,·,-8,0
COCCN(C(=O)CNC(=O)c1ccco1)C(C(=O)NC1CCCCC1)c1cccc(OC)c1 (stereo unspecified),i,i,i,-16,-5
CC1(C)CC(=O)C=C(NCc2ccncc2)C1,i,i,i,-6,-9

# (list continues)
SMILES,VCAM-1 down imaging,VCAM-1 inhibition,VCAM-1 augmentation,FPRL1 ligand,FPR ligand
O=C(NCCN1CCN(Cc2ccccc2)CC1)C1c2ccccc2C(=O)N2CCc3ccccc3C12 (stereo unspecified),·,·,·,-9,2
Cn1c(=O)cc(SCC(=O)N2CCN(Cc3ccc4c(c3)OCO4)CC2)c2ccccc21,·,·,·,-4,4
Cc1ccc2c(c1)N(CCCC(=O)NCC1COc3ccccc3O1)C(=O)CO2 (stereo unspecified),·,·,·,-7,5
CCOC(=O)C1CCCN(C/C(O)=C(\C#N)c2nc(-c3ccc(Cl)cc3)cs2)C1 (stereo unspecified),i,i,i,3,6
COc1ccc(OC)c(S(=O)(=O)N2CCN(C34CC5CC(CC(C5)C3)C4)CC2)c1,·,·,·,-3,-8
O=C1CCC(Cc2ccccc2)N1 (stereo unspecified),·,·,·,3,2
CCCc1cc(C(=O)NCC(C)C)no1,·,·,·,0,-1
COc1ccc(N2CCN(CCNC(=O)CCCn3c(=O)[nH]c4cc(Cl)ccc4c3=O)CC2)cc1,·,·,·,1,-9
CCCC1(C(=O)O)NC(c2ccccc2O)C2C(=O)N(c3cccc(Cl)c3)C(=O)C21 (stereo unspecified),·,·,·,-7,17
COc1ccc(C(NC(C)=O)c2ccc3cccnc3c2O)c(OC)c1 (stereo unspecified),i,i,i,-3,20
Cc1noc(C)c1S(=O)(=O)N1CCCC(C(=O)Nc2ccc(Cl)cn2)C1 (stereo unspecified),·,·,·,-6,1
Cc1c(C)c2ccc(OC3CCCCC3=O)cc2oc1=O (stereo unspecified),i,i,i,-6,0
Cc1cccc(N2C(=O)CC(N(C(=O)c3ccco3)c3cccc(C)c3)C2=O)c1 (stereo unspecified),i,i,i,-7,-8
Cn1c(C(=O)NCCC2=CCCCC2)cc2c(=O)n3ccccc3nc21,i,i,i,-6,-1
O=[n+]1c2c(n([O-])c3cc(F)ccc31)CCCC2,·,·,·,3,-1
CC1(C)CC(NC(=O)C(F)(F)F)CC(C)(C)N1OC(=O)c1ccco1,·,·,·,-4,-1
CO[C@H]1C[C@@H]2CC[C@@H](C)[C@@](O)(O2)C(=O)C(=O)N2CCCC[C@H]2C(=O)O[C@H]([C@H](C)C[C@@H]2CC[C@@H](O)[C@H](OC)C2)CC(=O)[C@H](C)C=C(C)[C@@H](O)[C@@H](OC)C(=O)[C@H](C)C[C@H](C)C=CC=CC=C1C,106%,89*,i,3,-2
CCOC(=O)c1cccc(NC(=O)C2CCCN2S(=O)(=O)c2cccc3cccnc23)c1 (stereo unspecified),·,·,·,2,3
COc1ccc(C(=O)Nc2cccc(C)c2)cc1S(=O)(=O)N1CCOCC1,i,i,i,0,-3
COc1ccc(CC(=O)Nc2ccc(-c3nnc(-c4ccc(C)cc4)o3)cc2)cc1,i,80,i,51*,26
c1ccc(Cn2nnnc2CN2CCCC2)cc1,i,i,i,6,14
COc1ccccc1-n1c(-c2cccnc2)n[nH]c1=S,i,i,i,-1,-6
Cc1ccccc1NC(=O)C1CCCN(S(=O)(=O)c2cccc3cccnc23)C1 (stereo unspecified),i,i,i,-6,-8
CN(Cc1cccs1)C(=O)CCc1ccc(S(=O)(=O)N2CCOCC2)cc1,i,i,i,1,4
COc1ccc2nc(CC(C)(C)CC(=O)O)c[n+]([O-])c2c1,i,i,i,-8,4

# As a short view, part of the list above:
SMILES,VCAM-1 down imaging,VCAM-1 inhibition,VCAM-1 augmentation,FPRL1 ligand,FPR ligand
CN(Cc1cccs1)C(=O)CCc1ccc(S(=O)(=O)N2CCOCC2)cc1,i,i,i,1,4
COc1ccc2nc(CC(C)(C)CC(=O)O)c[n+]([O-])c2c1,i,i,i,-8,4

# (list continues)
SMILES,VCAM-1 down imaging,VCAM-1 inhibition,VCAM-1 augmentation,FPRL1 ligand,FPR ligand
CCCCCn1c(NCc2ccco2)nc2ccccc21,·,·,·,-4,-6
CCC(C)NC(=O)c1cn(CC)c2ccc(S(=O)(=O)N(C)C)cc2c1=O (stereo unspecified),i,i,i,3,7
COC(=O)C1=C(C)NC(=O)CC1c1cccc(Cl)c1Cl (stereo unspecified),·,·,·,-6,3
CC1(CC(=O)O)SC(=O)NC1=O (stereo unspecified),·,·,·,4,2
Nc1nnc(SCCOc2ccccc2)s1,i,i,i,-2,-2
CCCCCSc1nnc2c(n1)OC(c1cccn1C)N(C(C)=O)c1ccccc1-2 (stereo unspecified),·,·,·,-3,-4
Cn1cccc1Cc1nnc(SCC(=O)N2CCCCCC2)n1CCc1ccccc1,·,·,·,-2,5
Cc1nc(SCCC(=O)O)c2ccccc2n1,i,i,i,-38,-3
CCCc1noc(-c2ccc(-c3ccccc3)cc2)n1,·,·,·,-1,-4
CCn1c(Cc2ccccc2)nnc1SCC(=O)Nc1nc2ccccc2s1,i,i,i,-6,4
CCCC(=O)NCCc1cc2c(C)ccc(C)c2[nH]c1=O,i,i,i,-5,-3
CCn1cc(CNC(=O)C2C3CCC(C3)C2C(=O)O)cn1 (stereo unspecified),·,·,·,3,3
Cc1ccc(C)c(-n2c(N)c(C(N)=O)sc2=S)c1,·,·,·,9,-6
Cc1ccc(-n2c(=O)cc(NCc3cccnc3)[nH]c2=O)cc1,·,·,·,8,1
CCCCOC(=O)C(C)Oc1ccc(=O)n(-c2ccccc2)n1 (stereo unspecified),·,·,·,2,-2
CCOC(=O)c1c(C)oc2c1c(C=NCC1CCCO1)c(O)c1ccccc12 (stereo unspecified),·,·,·,4,-4
COc1cccc(OC)c1OCCN1CCN(C(=O)c2ccco2)CC1,i,i,i,-4,-1
O=C(Nc1cnccn1)c1cccs1,i,i,i,-1,-4
Cc1ccc(S(=O)(=O)NCCNC(=O)c2ccccc2)cc1,i,i,i,-1,-2
CCOc1ccc(-c2nnc3sc(-c4c(OC)cccc4OC)nn23)cc1,i,i,i,-3,-7
O=C(Nc1nnc(-c2ccc(Cl)cc2)o1)C1CCCCC1,i,i,i,-5,-2

# Molecules from the list above with a cyano group, in the order listed:
SMILES,VCAM-1 down imaging,VCAM-1 inhibition,VCAM-1 augmentation,FPRL1 ligand,FPR ligand
CC(C)Cc1cc(C(=O)Nc2sc3c(c2C#N)CCCC3)no1,·,·,·,-8,7
CCOC(=O)C1CCCN(C/C(O)=C(\C#N)c2nc(-c3ccc(Cl)cc3)cs2)C1 (stereo unspecified),i,i,i,3,6

# Some of the compounds tested; count on the stated rates, not on these rows.
